# Menin-MLL FL inh: inhibitors of human menin-MLL interaction, wild-type MLL peptide. Fluorescence polarization, fluorescein-MLL peptide displacement from menin. FP activity change, % at 61.4 µM. 290,000 tested, under 10 active; inconclusive = falling polarisation curve, or a change in total fluorescence; inactive = total fluorescence flat and polarisation flat or rising; no compound was filed as active; the % refers to the polarisation; negative = inhibition;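 note: % of control where 0% means no effect; inhibitors lower the polarisation; unlabelled MLL peptide was the positive control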
# Sfp PPTase inh: inhibitors of Bacillus subtilis Sfp phosphopantetheinyl transferase | Biochemical Sfp PPTase activity, qHTS | Potency, µM, for the others: max response, negative = inhibition, usual class: inhibitors | actives 3.5% (n = 310,000) | AID 1490; active = well fitted inhibition curve with a large enough effect; inconclusive = small, poorly fitted or top-dose-only effect, or another doubt; inactive = no such curve, though single readings can be large or run the other way;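 note: the enzyme is Sfp with the accession as filed and its product quenches rhodamine fluorescence; potency is the fitted concentration of half-maximal effect; 0% = enzyme reaction without inhibitor and -100% = no enzyme wells; top concentration of the series not given in the record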
#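 Fluorescence-quenching assay: 15 nM Sfp-PPTase preincubated 15 min at room temperature with compound, then 5 uM rhodamine-CoA and 12.5 uM BHQ-2-labelled YbbR peptide added. Fluorescence (ex 525/em 598 nm) read at start and after 30 min; difference gives rate.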
# ClpP mod: qHTS Assay for Activators of ClpP | ATP-dependent Clp protease proteolytic subunit (Bacillus subtilis (strain 168)), P80244 | purified B. subtilis ClpP, FRET peptide cleavage, 20 min | Potency, µM (top dose mostly 57.5 µM), without a hit: top-dose activity change, negative = active | actives 1.9% (n = 340,000) | AID 651965, 2013; active = well fitted falling curve with a large enough effect; inconclusive = small, poorly fitted or top-dose-only effect; inactive = no such curve, though single readings can be large or run the other way; note: potency is the fitted concentration of half-maximal effect; the source files actives as falling curves though it sought activators and does not explain the sign; nearly all actives have a fitted effect of over 65% in size; many hits overshoot -100%
# Target sequence (P80244 whole entry, looked up): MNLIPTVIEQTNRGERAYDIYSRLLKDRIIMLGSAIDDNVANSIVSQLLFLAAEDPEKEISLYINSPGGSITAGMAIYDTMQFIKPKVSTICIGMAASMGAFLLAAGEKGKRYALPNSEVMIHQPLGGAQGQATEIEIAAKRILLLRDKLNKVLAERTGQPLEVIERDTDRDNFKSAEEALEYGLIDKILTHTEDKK
#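 ClpP 10 microg/mL final, pH 8 Tris/KCl buffer with BSA, glycerol, Tween-20; compound pinned in; FRET-FV substrate; RT 20 min; Ex320/Em430; ΔFRET vs ADEP 5.8 microM, DMSO, no enzyme.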
# TRPML1 ag: human mucolipin-1 channel agonism; TRPML1-expressing cells, Ca2+ dye fluorescence, FDSS; host cell line not named in the record; reference of the full effect not given here; activation, % (test concentration not listed); actives 0.12% (n = 410,000); in the data active = activation above about 50%; inconclusive = about 30% to 50%; inactive = below about 30%; note: 0% is about no effect; the text of the record puts the active cut at 80%
#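 Tet-induced TRPML1-DL cells, 1,500 per well, cultured overnight, were loaded with a no-wash Ca2+ dye for 45–90 min. Calcium fluorescence was recorded on the FDSS for 110 s after compound addition, before the EC80 agonist (4 uM 54-4) was added.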
# TRPML1 inh: inhibitors of human TRPML1 channel; Q9GZU1; actives 0.02% (n = 390,000); TRPML1-inducible cells, Ca2+ dye fluorescence, FDSS; active compounds read low; inhibition of EC80 agonist-evoked calcium signal; activity change, negative = inhibition, % (concentration not given with the values); in the data active means activity change below about -50%; inconclusive means about -30% to -50%; inactive means above about -30%;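 note: stimulus is agonist 54-4 at its EC80 concentration; % is set by controls: 0 for no effect and ±100 for the full control effect; the text of the record puts the active cut at -80%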
#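 Calcium fluorescence in TRPML1-DL cells induced overnight with Tet: a 110 s read after compound pin addition, then a 110 s antagonist read after challenge with 54-4 at 4 uM final (EC80).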
# TRPV1 PAM: potentiators of human vanilloid receptor 1 (TRPV1); potentiation, % at 8.33 µM; actives 0.02% (n = 320,000); AID 540277; TRPV1-expressing cells, Fluo-8 calcium influx, capsaicin EC20 potentiation; host cell line not named in the record; control for the full effect not named in the record; Q8NER1; active means potentiation above 80%; inconclusive means 30% to 80%; inactive means below 30%; note: 0% is about no effect
# Target sequence (Q8NER1 whole entry, looked up): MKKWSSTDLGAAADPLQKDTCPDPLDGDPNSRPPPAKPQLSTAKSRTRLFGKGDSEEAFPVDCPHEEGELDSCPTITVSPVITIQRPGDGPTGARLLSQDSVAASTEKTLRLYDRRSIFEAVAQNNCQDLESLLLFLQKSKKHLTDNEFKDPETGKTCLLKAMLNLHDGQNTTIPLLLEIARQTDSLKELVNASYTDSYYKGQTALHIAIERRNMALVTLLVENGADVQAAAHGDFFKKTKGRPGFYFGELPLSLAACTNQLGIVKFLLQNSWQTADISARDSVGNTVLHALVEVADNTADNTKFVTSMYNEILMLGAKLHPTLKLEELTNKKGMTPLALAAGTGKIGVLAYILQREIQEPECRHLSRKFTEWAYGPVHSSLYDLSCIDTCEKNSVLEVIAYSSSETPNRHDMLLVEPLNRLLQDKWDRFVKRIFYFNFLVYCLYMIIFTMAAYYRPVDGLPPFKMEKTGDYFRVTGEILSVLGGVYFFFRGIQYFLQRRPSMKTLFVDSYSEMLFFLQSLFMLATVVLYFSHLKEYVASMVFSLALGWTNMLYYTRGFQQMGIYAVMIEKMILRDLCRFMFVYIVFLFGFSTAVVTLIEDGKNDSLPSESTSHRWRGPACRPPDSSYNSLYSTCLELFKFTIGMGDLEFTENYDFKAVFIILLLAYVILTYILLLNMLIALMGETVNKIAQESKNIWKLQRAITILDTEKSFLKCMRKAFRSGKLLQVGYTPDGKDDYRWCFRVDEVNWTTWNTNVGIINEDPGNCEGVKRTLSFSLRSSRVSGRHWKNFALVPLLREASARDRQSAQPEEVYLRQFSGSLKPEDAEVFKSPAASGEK
#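 Fluo-8 calcium influx in TRPV1-expressing cells, kinetic read (ex 480/em 520 nm). Compound added and read 3 min for agonist activity, followed by capsaicin at EC20 final and 2 min further read for enhancement.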
# PINK1 modulator: modulators of PINK1 expression | PINK1 immunofluorescence, high-content cytometry, 24 h | Potency, µM (highest dose often 76.6 µM), for the others: top-dose activation (PINK1 increase), actives largely listed as activators | actives 0.2% (n = 410,000) | AID 624263; active = well fitted activation curve with a large enough effect; inconclusive = small, poorly fitted or top-dose-only effect; inactive = flat fitted curve, though single readings scatter; cell line not stated here;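 note: potency is the fitted concentration of half-maximal effect; % of control where 0% means no effect; nearly all actives have a fitted effect of over 65% in size; a mitochondrial uncoupler was the plate control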
#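 Stable cell line, 250 cells/well, 12 h attachment; compounds pinned at 5 concentrations, 24 h; CCCP control. Fixed with nuclear dye, primary antibodies 12 h at 10 degrees C, secondary plus cell stain; laser-scanning cytometer read.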
# An asterisk follows results filed as active; ? = inconclusive; . = no result given; [ ] = remark or other dose.
SMILES,Menin-MLL FL inh,Sfp PPTase inh,ClpP mod,TRPML1 ag,TRPML1 inh,TRPV1 PAM,PINK1 modulator
CCC(O)(CC)C(=O)N(Nc1ccc(C)cc1)c1ccc(C)cc1,3.0,15%,-1.4%,0.9,-5,2,0.2%
Cc1ccc(Nc2c(-c3ccc(N4CCOCC4)cc3)nc3ccc(C)cn23)cc1,.,.,?,1.5,-8,.,-4.1%
COc1ccc(Oc2ccc(C(F)(F)F)cc2NC(=O)CC(CC(=O)O)c2ccccc2)cc1 (stereo not given),1.9,22%,-0.4%,1.2,-26,-1,-0.4%
NS(=O)(=O)c1ccc(CCNC(=O)COC(=O)COc2cccc(C(F)(F)F)c2)cc1,.,.,0.1%,0.6,0,-2,-0.2%
O=C(NC(Cc1c[nH]c2ccccc12)C(=O)O)c1cccs1 (stereo not given),-3.3,9%,.,0.3,6,-7,-0.4%
O=C(O)CSC(NC(=O)c1cccnc1)(C(F)(F)F)C(F)(F)F,0.0,-14%,-4.8%,0.7,-9,18,-0.1%
Cc1ccc(CN(C)CCc2ccccn2)cc1,-0.3,-10%,1.2%,0.2,11,9,13%[38.3 µM]
COc1ccccc1OCc1ccc(C(=O)N/N=C/c2ccco2)cc1,1.3,30%,0.4%,2.0,-10,-15,0.4%
Cc1[nH]c2ccc(C(=O)NCCCN3CCN(C)CC3)cc2c1C,2.1,14%,-7.3%,0.1,18,-4,0.2%
CCC(C)NC(=O)CCc1c(C)nc2cc(-c3ccc(OC)cc3OC)nn2c1C (stereo not given),.,.,3.9%,-1.2,3,.,0.2%
CCC(=O)N1CCc2cc(Br)cc(S(=O)(=O)CCC(=O)NCc3ccc(C)cc3)c21,.,.,-1.6%,6.8,-4,.,0.2%
C/C=C\C(=O)Nc1cccc(C2=NOC3(C2)C[C@@H](C(N)=O)N(C(=O)CCCCC)C3)c1 (stereo not given in full),-0.2,16%,-1.9%,-0.8,-3,?,5.2%
COc1ccc(NC(=O)CSc2nnc(Cc3cccs3)n2C)cc1,.,.,.,0.4,-5,-11,-1.0%
NC(C(=O)O)C(O)C(=O)O (stereo not given),3.0,9%,.,.,.,.,2.3%
Cc1cccc(OCCCCCN2CCOCC2)c1C,-4.6,9%,.,0.6,3,-12,1.5%

# As entered above.
# NC(C(=O)O)C(O)C(=O)O (stereo not given) in PINK1 modulator is entered as 2.3%
# O=C(O)CSC(NC(=O)c1cccnc1)(C(F)(F)F)C(F)(F)F in Sfp PPTase inh is entered as -14%

# Next section
SMILES,Menin-MLL FL inh,Sfp PPTase inh,ClpP mod,TRPML1 ag,TRPML1 inh,TRPV1 PAM,PINK1 modulator
Cc1ccc(S(=O)(=O)N2CCCCC2)cc1NC(=O)c1ccccn1,4.7,-12%,-1.0%,1.5,11,9,-1.8%
Cc1ccc(-c2cn3c(n2)sc2cc(C(=O)NC4CCCCCC4)ccc23)cc1,.,.,-13%,0.5,12,.,0.6%
CCN(CC)c1nc(C)c2c(c1C#N)CC(C)(C)OC2,5.2,-1%,?,-0.3,-11,0,11%
COc1cccc(C(=O)NCc2cn3ccccc3n2)c1,.,.,?,0.0,-14,.,1.1%
O=C(CSc1nnc2sc3ccccc3n12)N1CCN(c2ccccc2)CC1,1.6,-1%,-2.5%,2.3,25,0,1.4%[38.3 µM]
COc1ccc2c(c1)C(c1ccccc1)=NNC(c1ccco1)=N2,5.2,0%,0.2%,0.2,-11,0,-5.2%[38.3 µM]
CCOCCCNC(=O)C(c1ccccc1)N(Cc1cccs1)C(=O)CNC(=O)c1ccccc1 (stereo not given),-1.6,-29%,2.5%,-0.2,-5,25,0.4%
O=C(c1cccc(NS(=O)(=O)c2cccc(F)c2)c1)N1CCN(c2ccccc2)CC1,-0.5,-26%,0.3%,0.1,7,15,-0.6%
NC(c1csc(NC(=O)Nc2ccc(OC(F)(F)F)cc2)n1)C1CCCCC1 (stereo not given),.,.,-4.1%,0.4,.,.,-1.3%
COc1cccc(CN2CCC(n3nccc3NC(=O)CCCc3ccccc3)CC2)c1,.,-6%,0.0%,-0.8,-3,-13,0.1%
C[C@H](CO)N1C[C@H](C)[C@@H](CN(C)Cc2ccc(-c3ccccc3)cc2)Oc2c(NC(=O)Cc3ccccc3)cccc2C1=O,.,.,-4.3%,1.0,-3,.,0.4%
CCOC(=O)N1CCN(C(=O)c2ccc(NS(C)(=O)=O)cc2)CC1,2.2,7%,-2.0%,0.2,1,24,1.2%
COC(=O)C1C(=O)C2=C(CC1C)NC(C)=C(C(=O)OCc1ccc(OC)cc1)C2c1ccc(C)o1 (stereo not given),-0.4,?,-11%,3.7,-13,5,3.0%
Cc1cccc(N2C(=O)N(Cc3cc(=O)n4ccccc4n3)c3ccccc3S2(=O)=O)c1,.,.,4.0%,-0.5,-10,.,1.5%
COc1cc(/C=N/NC(=O)CSc2cc(C)c(Br)cc2C)ccc1O,-0.7,?,-6.2%,0.7,10,8,0.8%
COc1cc(/C=C2\C(=O)N(CCC#N)N=C2C)c(Br)cc1OC(C)C,3.4,8%,-0.3%,-1.0,17,3,6.5%
COCC(=O)Oc1c(Sc2ccccc2[N+](=O)[O-])c(C)nn1C(C)(C)C,0.4,?,.,1.2,-11,2,-1.5%
COc1ccc(NC(=O)C2C3C=CC4(O3)C2C(=O)N(CCN2CCCCC2C)C4C(=O)NC2CCCCC2)cc1 (stereo not given),-3.4,-2%,.,0.8,5,-15,0.7%
C=CC[C@H](CC(=O)N(CCO)Cc1ccccc1)C(=O)N[C@@H](C)COC(=O)[C@H](CC=C)CC(=O)OC(C)(C)C,.,.,2.2%,0.1,-6,.,-0.6%
CN(C)CCN(C(=O)c1ccc(S(=O)(=O)N(C)c2ccccc2)cc1)c1nc2ccc(Cl)cc2s1,.,0%,-0.2%,-0.8,14,9,0.4%
Cc1ccc2sc(N(CCCN(C)C)C(=O)c3ccc(S(=O)(=O)N(C)C4CCCCC4)cc3)nc2c1C,.,.,-6.1%,2.1,-1,-12,1.7%
COc1ccc(-c2nc3ccc(C)cn3c2CC2CCCCC2)cc1OC,.,.,5.4%,-0.5,.,.,-0.2%
CCNC(=S)N1CCN(CCNC2=CC(=O)CC(C)(C)C2)CC1,0.8,21%,0.2%,0.5,14,-10,1.3%
C=CCn1c(=NC(=O)C2COc3ccccc3O2)sc2cc(S(N)(=O)=O)ccc21 (stereo not given),10,3%,-5.2%,1.5,-17,4,6.8%
Cn1c(=O)oc2cc(S(=O)(=O)NCCC(=O)NC3CCCC3)ccc21,5.9,-8%,-1.4%,0.6,3,18,-6.7%[38.3 µM]
CCOC(=O)Nc1ccc([N+](=O)[O-])cc1OC,.,.,-0.1%,2.8,2,.,1.0%
Nc1ncn([C@H]2C[C@H](O)[C@@H](CO)O2)c(=O)n1,.,.,-1.4%,0.3,-22,3,0.1%
CNc1nc(-c2ccc([N+](=O)[O-])cc2)cs1,0.5,-12%,5.1%,0.6,-1,8,7.4%
COc1ccc(-c2noc(-c3cccnc3NCc3ccco3)n2)cc1,.,.,4.1%,0.3,-21,.,1.5%
Cc1ccc(C)c(N2CCN(C(=O)Cn3c(C)c4cnn(-c5ccccc5)c(=O)c4c3C)CC2)c1,.,.,-5.2%,0.3,4,.,1.3%
NC(=O)C1CCCN(CC(=O)Nc2cc(S(=O)(=O)N3CCOCC3)ccc2N2CCCC2)C1 (stereo not given),.,.,-0.4%,-1.1,18,23,1.9%
Cc1ccc(NC(=O)Cn2cccc2)c(Br)c1,0.2,14%,0.8%,-0.7,-1,6,2.1%[38.3 µM]
COc1ccc(NC(=O)c2sc3nc(-c4cc5cccc(OC)c5oc4=O)[nH]c(=O)c3c2C)cc1,.,.,1.1%,-0.3,-13,.,1.9%
O=C1NC[C@H](CCCCN2C[C@H](Cc3ccccc3)N(CC3CCCCC3)C(=O)C2=O)N(CC2CCCCC2)C1=O,.,.,1.7%,-0.3,.,.,0.6%
COc1ccccc1-n1c(-c2ccc(Cl)cc2)c[nH]c1=S,0.8,-13%,-12%,1.4,-4,9,3.6%
O=C(c1ccco1)N(Cc1cccc(Cl)c1)C1CCS(=O)(=O)C1 (stereo not given),4.4,10%,2.5%,-1.4,-1,8,-0.7%
CCOC(=O)c1nn(-c2cc(C(=O)OC)cc(C(=O)OC)c2)cc1O,-0.9,4%,-0.3%,1.2,-3,24,?
O=C(O)c1nn(CCOc2ccc(Cl)cc2Cl)c(=O)c2ccccc12,-3.0,22%,.,2.0,14,4,8.7%
Cc1nnc(NC(=O)C2CSC3(C)CCC(=O)N23)s1 (stereo not given),.,.,0.9%,1.8,34,1,-0.1%
CC(C)c1ccc(NC(=O)CSC2=Nc3ccccc3C3=NC(CC(=O)NCc4ccc(F)cc4)C(=O)N23)cc1 (stereo not given),.,.,-3.9%,1.1,49,.,1.1%
CC(=O)c1cccc(NC(=O)c2cc(=O)[nH]c3ccccc23)c1,0.6,-7%,.,0.2,11,-4,-0.6%
c1ccc(OC2CCCCC2N2CCOCC2)cc1 (stereo not given),.,.,0.1%,-0.1,7,.,-1.2%
COc1cccc2c1C(=O)c1c(O)c3c(c(O)c1C2=O)CC(O)(C(C)=O)CC3OC1CC(O)C(O)C(C)O1 (stereo not given),.,.,-8.7%,13,-5,.,-6.2%
O=C(CSc1nnc(-c2ccccc2Br)o1)N1CCc2ccccc2C1,0.0,2%,-2.7%,1.4,-10,-3,1.5%[38.3 µM]
O=C(O)CCCn1cc(NC(=O)c2ccco2)cn1,0.6,10%,.,0.6,-17,11,-2.4%
Cc1cccc(C)c1NC(=O)COC(=O)[C@@H]1CCCN1C(=O)c1cccs1,.,.,.,0.1,22,.,0.4%
COc1ccc(N2CCN(C(=O)CN(CCc3ccccc3)S(C)(=O)=O)CC2)cc1,0.2,2%,-0.1%,0.3,-8,3,-5.1%[38.3 µM]
Cc1cc(C)nc(NC(=O)/C=C/c2ccccc2Cl)n1,1.9,-6%,0.5%,0.8,11,-12,-1.0%
COc1ccnc(Oc2ccc(F)cc2)c1C(=O)N/C=N/OCc1ccc(F)cc1,-1.9,1%,0.6%,8.5,-6,0,7.2%[38.3 µM]
O=C(Oc1ccccc1)N1CCC2(CCCN(c3ccc(-c4ccccc4)cc3)C2)CC1,?,13%,.,.,.,.,0.2%
